PINK1 expr mod – modulators of PINK1 expression; PINK1 immunofluorescence, high-content cytometry, 24 h; Potency, µM (highest dose often 76.6 µM), inactives show top-dose activation (PINK1 increase), hits mostly activators; 410,000 compounds, 0.2% hits; active = well fitted activation curve with a large enough effect; inconclusive = small, poorly fitted or top-dose-only effect; inactive = flat fitted curve, though single readings scatter; cell line not stated here;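 also: potency is read from the fitted curve at half-maximal effect; % of control where 0% means no effect; nearly all actives have a fitted effect of over 65% in size; a mitochondrial uncoupler was the plate control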
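Compound titrations (5 concentrations, 24 h) on a stable cell line; DMSO and CCCP controls. Endpoint: fixed-cell PINK1 immunofluorescence with mitochondrial, cell and nuclear markers, scanned by microplate cytometer.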
Sfp inh – blocks B. subtilis Sfp PPTase activity | 310,000 compounds, 3.5% hits | AID 1490 | Potency, µM, for the others: max response, negative = inhibition, most hits filed as inhibitors | Biochemical Sfp PPTase activity, qHTS; active = well fitted inhibition curve with a large enough effect; inconclusive = small, poorly fitted or top-dose-only effect, or another doubt; inactive = no such curve, though single readings can be large or run the other way;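 also: the enzyme is Sfp with the accession as filed and its product quenches rhodamine fluorescence; potency is read from the fitted curve at half-maximal effect; 0% = enzyme reaction without inhibitor and -100% = no enzyme wells; top concentration of the series not given in the record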
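Buffer: 50 mM Hepes-Na pH 7.6, 10 mM MgCl2, 0.01% Nonidet P-40, 0.01% BSA. Enzyme 15 nM, pre-exposed to compound 15 min; substrates then added and fluorescence change tracked over 30 min.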
D2 ag – agonists of human D2 dopamine receptor (beta-arrestin); DiscoveRx PathHunter D2 beta-arrestin, luminescence, 90 min; 100% = 57 uM dopamine signal; 360,000 compounds, 0.084% hits; P14416; activation, % (no concentration beside the values); in the data active = activation above about 40%; inconclusive = about 15% to 40%; inactive = below about 15%; also: compound concentration not given in the record; the text of the record calls up to 30% inactive
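Agonist mode: compounds alone added to overnight-plated D2 PathHunter cells for 90 min at 37 C, with 57 uM final dopamine (EC100) defining full response. Beta-arrestin recruitment detected by chemiluminescent reagent, read after 1 h at ambient temperature.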
CtBP-E1A inh – CtBP/E1A binding inhibition | 340,000 compounds, 0.49% hits | activity change, % (no concentration beside the values) | AlphaScreen GST-E1A/His-CtBP binding, 1536-well; hits give low values; control for the full effect not named in the record; in the data active means activity change below about -65%; inconclusive means about -30% to -65%; inactive means above about -30%; also: % is scaled to controls: 0 for no effect and ±100 for the full control effect
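In 5 uL wells, 23 nL compound meets equimolar GST-E1A and His-CtBP (5X stock 125 nM each) for 2 h, 37 °C. Beads (5X, 50 ug/mL) then 1 h, 37 °C, dark.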
D2 potentiator – potentiates the human D2 dopamine receptor allosterically. P14416. DiscoveRx D2 beta-arrestin cells, luminescence, 90 min; 100% = 57 uM dopamine signal. potentiation, % (test concentration not listed). 360,000 compounds, 0.23% hits. AID 624464; active = potentiation of 50% or more; inconclusive = 30% to 50%; inactive = 30% or less;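 also: compound concentration not given in the record; tested on top of an EC20 dose of dopamine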
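PathHunter beta-arrestin assay in DiscoveRx D2 cells. Compounds were added with an EC20 of dopamine (50 nM final) for 90 min at 37 deg C. Luminescence was read 1 h after detection reagent, with 57 uM dopamine as the EC100 control.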
TRPV1 potentiator – potentiators of human vanilloid receptor 1 (TRPV1); 320,000 compounds, 0.02% hits; Q8NER1; potentiation, % at 8.33 µM; AID 540277; TRPV1-expressing cells, Fluo-8 calcium influx, capsaicin EC20 potentiation; host cell line not named in the record; control for the full effect not named in the record; active means potentiation above 80%; inconclusive means 30% to 80%; inactive means below 30%; also: 0% is about no effect
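Fluo-8 calcium influx in TRPV1-expressing cells, kinetic read (ex 480/em 520 nm). Compound added and read 3 min for agonist activity, followed by capsaicin at EC20 final and 2 min further read for enhancement.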
Six1-Eya2 blk – blocks human Six1 binding to Eya2 | Q15475+O00167 | AlphaScreen GST-Six1/His-Eya2 binding, biochemical; hits give low values; control for the full effect not named in the record | activity change, % (no concentration beside the values) | 360,000 compounds, 0.56% hits | AID 651725; in the data active = activity change below about -65%; inconclusive = about -30% to -65%; inactive = above about -30%; also: % is scaled to controls: 0 for no effect and ±100 for the full control effect
Target sequence (O00167 whole entry, looked up): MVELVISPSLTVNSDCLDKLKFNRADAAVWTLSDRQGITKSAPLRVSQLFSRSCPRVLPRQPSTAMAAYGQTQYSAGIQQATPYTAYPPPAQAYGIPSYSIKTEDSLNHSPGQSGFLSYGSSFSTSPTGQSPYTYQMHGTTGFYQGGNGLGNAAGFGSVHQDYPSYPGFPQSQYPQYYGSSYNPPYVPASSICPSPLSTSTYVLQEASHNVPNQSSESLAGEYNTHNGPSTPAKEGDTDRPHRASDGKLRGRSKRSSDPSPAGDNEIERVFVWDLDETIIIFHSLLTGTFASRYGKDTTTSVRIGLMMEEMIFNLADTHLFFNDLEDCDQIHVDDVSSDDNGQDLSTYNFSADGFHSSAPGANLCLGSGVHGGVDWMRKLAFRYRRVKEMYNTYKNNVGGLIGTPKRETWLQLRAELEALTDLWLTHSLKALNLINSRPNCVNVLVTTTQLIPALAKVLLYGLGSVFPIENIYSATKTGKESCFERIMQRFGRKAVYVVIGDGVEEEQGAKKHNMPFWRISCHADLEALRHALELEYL
Target sequence (Q15475 whole entry, looked up): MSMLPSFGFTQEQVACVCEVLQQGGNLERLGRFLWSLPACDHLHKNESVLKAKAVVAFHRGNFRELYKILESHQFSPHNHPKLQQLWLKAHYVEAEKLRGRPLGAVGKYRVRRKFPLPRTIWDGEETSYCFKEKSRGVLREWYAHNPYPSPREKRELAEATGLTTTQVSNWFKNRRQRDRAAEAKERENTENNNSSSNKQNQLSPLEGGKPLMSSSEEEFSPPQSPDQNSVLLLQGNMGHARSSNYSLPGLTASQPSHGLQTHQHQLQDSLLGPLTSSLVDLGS
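Homogeneous AlphaScreen proximity assay pairing GST-Six1 with His-tagged Eya2 (added as 5X mix: 250 nM and 500 nM) in 50 mM Tris pH 8.0, 300 mM NaCl, 1 mM TCEP. Glutathione donor and nickel acceptor beads; 1 h, 37 °C, dark.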
* marks the source's active call; other numbers are inactive results; u = inconclusive; x = no result given; [ ] = another dose, or the depositor's remark.

SMILES	PINK1 expr mod	Sfp inh	D2 ag	CtBP-E1A inh	D2 potentiator	TRPV1 potentiator	Six1-Eya2 blk
O=C(CCc1nc2ccccc2c(=O)[nH]1)Nc1cccc(S(=O)(=O)N2CCOCC2)c1	6.3%	x	-3.5	-7	-1	-6	-6
O=C(/C=C/c1ccccc1Cl)N(Cc1ccccc1)C1CCS(=O)(=O)C1 (stereo not drawn)	1.2%	-11%	-0.2	-1	-28	19	6
Cc1ccc(S(=O)(=O)N2CCCCC2)cc1NC(=O)c1cc(F)c(F)c(F)c1F	-4.1%	x	-1.2	7	-1	x	0
COc1ccc(S(=O)(=O)n2c(C)nc3ccccc32)cc1C	2.3%	16%	4.4	x	-1	-18	2
O=C1NC(=S)SC1=Cc1ccccc1Br	u	x	-3.9	-20	-6	x	-8
CCCn1cc(CN2CCC(Cc3ccccc3)(C(=O)OCC)CC2)c(C)n1	-1.2%	12%	-3.1	6	-3	-5	-1
CCOC(=O)N1CCN(S(=O)(=O)c2ccc(OCC(=O)OC)c(C)c2)CC1	1.1%[38.3 µM]	13%	5.7	5	-1	-10	4
COc1ccc(Br)cc1CN(C)C(=O)c1ccccc1OCc1c(C)noc1C	-1.4%	x	-1.5	4	-9	-9	-4
COCc1cccc(C(=O)NC(c2ccccc2)c2ccccc2)c1	-0.1%	15%	0.2	6	4	-10	0
Cc1cccc(C(=O)N[C@H](C(=O)OCc2cc(=O)n3c(n2)sc2ccccc23)C(C)C)c1	1.0%	0%	-2.6	-6	-3	-7	-10
O=C(CSc1ccc(Cl)cc1)NC1=NN(c2ccccc2)C(=O)C1	0.5%	-14%	-0.1	-1	3	2	-5
O=C(NCc1cccnc1)c1cccc(S(=O)(=O)N2CCCC2)c1	3.5%	17%	-1.4	0	-8	u	0
Cc1cc(SCC(=O)NCC2CCCO2)nc2ccccc12 (stereo not drawn)	-1.2%	2%	-1.8	-2	-11	2	5
CN(C)CCCN(C(=O)c1ccc2c(c1)OCCO2)c1nc2cc3c(cc2s1)OCO3	0.4%	10%	-4.0	-8	-28	4	-2
O=C(CCNS(=O)(=O)c1ccc(Cl)cc1)Nc1ccncc1	5.0%	7%	-17	1	-6	1	0

2 compounds drawn at random from those above, as already listed:
SMILES	PINK1 expr mod	Sfp inh	D2 ag	CtBP-E1A inh	D2 potentiator	TRPV1 potentiator	Six1-Eya2 blk
COc1ccc(Br)cc1CN(C)C(=O)c1ccccc1OCc1c(C)noc1C	-1.4%	x	-1.5	4	-9	-9	-4
O=C(CCc1nc2ccccc2c(=O)[nH]1)Nc1cccc(S(=O)(=O)N2CCOCC2)c1	6.3%	x	-3.5	-7	-1	-6	-6

The list continues:
SMILES	PINK1 expr mod	Sfp inh	D2 ag	CtBP-E1A inh	D2 potentiator	TRPV1 potentiator	Six1-Eya2 blk
COc1cc(CCC(=O)Nc2cccc(C(F)(F)F)c2)cc(OC)c1OC	-0.3%	10%	0.1	8	-4	u	14
CCOC(=O)N1CCC2(CC1)C(C#N)=C(N)Oc1c2c(C)nn1-c1cccc(Cl)c1	-0.5%[38.3 µM]	3%	-2.6	-23	-8	-2	-6
O=C(O)CCC(NS(=O)(=O)c1ccc(-c2ccccc2)cc1)C(=O)O (stereo not drawn)	-1.1%	7%	-1.9	-4	-10	1	8
C/C(=N/NC(=O)CNC(=O)c1ccccn1)c1ccccc1	-0.7%	u	-7.6	x	-5	1	5
COc1ccc(NC(=O)CSc2nc(C)cc(C)n2)cc1	-3.0%	13%	-4.4	-1	-10	-3	8
O=C(c1ccco1)N1CCN(c2ncnc3scc(-c4ccc(F)cc4)c23)CC1	1.1%	-2%	-2.0	-11	7	-2	-3
Cc1ccc(CN(Cc2ccccc2)C(=S)NCC(=O)NCc2cccnc2)o1	-1.0%	25µM*	1.9	2	0	26	-7
COc1ccccc1CNC(=O)C(Cc1ccccc1)NC(=O)c1ccccc1 (stereo not drawn)	3.5%	x	4.8	1	5	x	-2
Cc1c(Cl)c(C(=O)NNC(=S)NCc2ccco2)nn1C	-1.0%	17%	-0.9	-22	-1	14	-14
[N-]=[N+]=CC(=O)C(O)(c1ccccc1)C(Cl)c1ccccc1 (stereo not drawn)	5.8%	x	-5.5	x	-23	x	3
Cc1[nH]c(C)c(S(=O)(=O)NCc2ccc(Cl)cc2)c1C(=O)N1CCCC1	0.6%	25%	-5.0	-6	-8	5	-1
CCN(CC)CCCNC(=O)c1cn(C)c2ccc(S(=O)(=O)N(C)C)cc2c1=O	1.0%	9%	-2.8	3	-1	-4	3
Cc1ccc(-c2nnn(CC(=O)N3CCCCC3)n2)cc1	-0.1%	3%	6.6	-4	-7	25	13
Cc1csc(SCC(=O)N(c2ccccc2)C(C)C)n1	0.2%	x	-2.5	-15	3	6	8
O=C(COc1cccc(Br)c1)Nc1ccc(Cl)c(S(=O)(=O)N2CCOCC2)c1	-2.1%	x	-1.1	-17	-2	x	-21
CCOc1ccc(Oc2c(/C=N/NC(C)=O)c(C)nn2-c2ccccc2)cc1	-0.2%	-3%	-5.5	3	23	5	0
COc1ccc(CN2CCN(c3ccccc3OC)CC2)c(OC)c1	0.0%	-16%	-1.4	x	-64	-30	-2
O=c1c(-c2ccco2)[n+]([O-])c2ccccc2n1OCc1ccccc1F	4.2%[38.3 µM]	-5%	0.0	8	-9	-5	-1
CCOC(=O)CSC(CC)C(=O)Nc1nnc(CC)s1 (stereo not drawn)	-0.3%	2%	-4.7	-9	-14	-1	-14
c1ccc(-c2cn3c(n2)CCc2ccc4cccnc4c2-3)cc1	-2.5%	-39%	6.0	u	4	6	u
Cc1ccc(-n2ncc3c(NCc4ccco4)ncnc32)c(C)c1	1.1%	0%	-2.8	0	-1	-1	-13
COc1cccc(OC)c1C(=O)OCC(=O)NCC1CCCCC1	-1.0%	x	-0.8	5	-10	x	-2
CCC(C(=O)NCc1ccco1)N(C(=O)CNS(=O)(=O)c1ccc(C)cc1)c1ccccc1F (stereo not drawn)	-1.1%	19%	-2.4	0	-6	-1	-2
O=C(/C=C/c1ccc([N+](=O)[O-])cc1)NCc1cccnc1	-0.1%	-34%	-0.1	9	-11	-5	-8
NC(=O)c1ccc(NC(=O)COC(=O)/C=C/c2cccs2)cc1	8.8%	14%	-3.2	-2	-1	-8	-3
CCN(CC(=O)Nc1ccc2c(c1)OCCO2)c1nc(-c2cccnc2)nc2ccccc12	0.0%	u	-3.3	-7	-4	u	-19
C=CCN1CC(O)=C(c2ccccc2)C1=N	1.4%[38.3 µM]	8%	-2.0	12	2	-2	2
Cc1noc(COc2ccc(OCc3nc(C)no3)cc2)n1	-0.8%	4%	-2.5	1	-3	u	-3
O=C(O)c1cc(-c2cccs2)nc2cc3c(cc12)OCCO3	1.7%	5%	-0.9	6	0	-7	1
c1ccc2[nH]cnc2c1	0.4%	x	-4.2	-8	-5	x	3
CC1=C(C(=O)OC(C)(C)C)C(c2cccc3ccccc23)NC(=O)N1 (stereo not drawn)	0.5%	15%	8.0	1	-5	-18	6
CCCOc1ccc(S(=O)(=O)n2cc(Br)c(=O)[nH]c2=O)cc1	-0.6%[38.3 µM]	2%	-0.8	9	-4	-1	7
Cc1ccc(C2(C)NC(=O)N(CC(=O)NC(=O)NC(C)(C)C)C2=O)cc1 (stereo not drawn)	0.5%	-2%	-4.7	-3	-7	1	-19
O=C(CSc1ncnc2sc3c(c12)CCC3)N1CCOCC1	-0.4%	6%	-1.7	-10	1	-6	0
O=S(=O)(NOCc1ccc(Cl)cc1)c1ccc(Cl)cc1	6.2%	17%	1.0	15	-7	-4	-4
O=C(O)CC1(CC(=O)Nc2ccccc2C(=O)c2ccccc2)CCCC1	-0.8%	3%	4.1	10	-5	18	5
CN1CCN(S(=O)(=O)c2cccc(C(=O)Nc3ccccc3N3CCCC3)c2)CC1	-0.1%	9%	-3.1	2	-4	11	-4
COc1cccc(N(CC(=O)NCCSc2ccccn2)S(=O)(=O)c2ccccc2)c1	-1.7%	4%	-3.7	-17	1	16	1
Cc1cc(C)nc(NS(=O)(=O)c2ccc(NC(=S)NC(=O)CC(C)C)cc2)n1	-1.7%	0%	-3.5	0	-13	11	3
CN1CCN(C(=S)NC(=O)/C=C/c2cccs2)CC1	1.4%	-7%	-2.3	3	-12	-12	7
Cc1cc2nc(C3CCCCC3)c(CC(C)(C)C)n2c(C)c1Br	u	x	1.5	1	1	x	-1
COc1cc(NC(=O)c2ccco2)c(C(=O)O)cc1OC	-3.9%[38.3 µM]	u	-1.7	36	4	-1	17
O=C(Nc1cccc(C(=O)N2CCOCC2)c1)C1CC1	-1.2%	x	-2.0	4	-4	x	9
Cc1cc(C)cc(Cn2c3ccc(NC(=O)NCc4ccccc4)cc3c(=O)n2C)c1	0.7%	x	3.6	-9	7	x	2
CCCCN(CCCC)c1nc(-c2ccncc2)nc2ccccc12	4.2%	-20%	-1.8	x	-16	-15	11
CCOCCCNC(=O)C(NC(=O)CNC(=O)c1ccccc1)c1ccc(OC)cc1 (stereo not drawn)	5.9%	12%	0.2	8	1	u	1

Among those listed so far, these contain an aryl methoxy group.
SMILES	PINK1 expr mod	Sfp inh	D2 ag	CtBP-E1A inh	D2 potentiator	TRPV1 potentiator	Six1-Eya2 blk
COc1ccc(S(=O)(=O)n2c(C)nc3ccccc32)cc1C	2.3%	16%	4.4	x	-1	-18	2
COc1ccc(Br)cc1CN(C)C(=O)c1ccccc1OCc1c(C)noc1C	-1.4%	x	-1.5	4	-9	-9	-4
COc1cc(CCC(=O)Nc2cccc(C(F)(F)F)c2)cc(OC)c1OC	-0.3%	10%	0.1	8	-4	u	14
COc1ccc(NC(=O)CSc2nc(C)cc(C)n2)cc1	-3.0%	13%	-4.4	-1	-10	-3	8
COc1ccccc1CNC(=O)C(Cc1ccccc1)NC(=O)c1ccccc1 (stereo not drawn)	3.5%	x	4.8	1	5	x	-2
COc1ccc(CN2CCN(c3ccccc3OC)CC2)c(OC)c1	0.0%	-16%	-1.4	x	-64	-30	-2
COc1cccc(OC)c1C(=O)OCC(=O)NCC1CCCCC1	-1.0%	x	-0.8	5	-10	x	-2
COc1cccc(N(CC(=O)NCCSc2ccccn2)S(=O)(=O)c2ccccc2)c1	-1.7%	4%	-3.7	-17	1	16	1
COc1cc(NC(=O)c2ccco2)c(C(=O)O)cc1OC	-3.9%[38.3 µM]	u	-1.7	36	4	-1	17
CCOCCCNC(=O)C(NC(=O)CNC(=O)c1ccccc1)c1ccc(OC)cc1 (stereo not drawn)	5.9%	12%	0.2	8	1	u	1
